TRPV1 PAM: HTS Assay for Compounds that Act as Potentiators of the Vanilloid Receptor 1; Transient receptor potential cation channel subfamily V member 1 (Homo sapiens), Q8NER1; TRPV1-expressing cells, Fluo-8 calcium influx, capsaicin EC20 potentiation; host cell line not named in the record; control for the full effect not named in the record; potentiation, % at 8.33 µM; 320,000 compounds, 0.02% hits; AID 540277, 2011; active means potentiation above 80%; inconclusive means 30% to 80%; inactive means below 30%; note: 0% is about no effect
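TRPV1-expressing cells were cultured overnight at 35.5C and loaded with Fluo-8 calcium dye for 40 to 90 min at room temperature. After a 10 s baseline, compound was added and calcium influx was read kinetically for 3 min (ex 480/em 520 nm).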
D2 PAM: Beta-Arrestin HTS for Positive Allosteric Modulators of the Human D2 Dopamine Receptor: Potentiators | potentiation, % (test concentration not listed) | 360,000 compounds, 0.23% hits | D(2) dopamine receptor (Homo sapiens), P14416 | DiscoveRx D2 beta-arrestin cells, luminescence, 90 min; 100% = 57 uM dopamine signal | AID 624464, 2012; active = potentiation of 50% or more; inconclusive = 30% to 50%; inactive = 30% or less;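 note: compound concentration not given in the record; tested on top of an EC20 dose of dopamine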
Target sequence (P14416 whole entry, looked up): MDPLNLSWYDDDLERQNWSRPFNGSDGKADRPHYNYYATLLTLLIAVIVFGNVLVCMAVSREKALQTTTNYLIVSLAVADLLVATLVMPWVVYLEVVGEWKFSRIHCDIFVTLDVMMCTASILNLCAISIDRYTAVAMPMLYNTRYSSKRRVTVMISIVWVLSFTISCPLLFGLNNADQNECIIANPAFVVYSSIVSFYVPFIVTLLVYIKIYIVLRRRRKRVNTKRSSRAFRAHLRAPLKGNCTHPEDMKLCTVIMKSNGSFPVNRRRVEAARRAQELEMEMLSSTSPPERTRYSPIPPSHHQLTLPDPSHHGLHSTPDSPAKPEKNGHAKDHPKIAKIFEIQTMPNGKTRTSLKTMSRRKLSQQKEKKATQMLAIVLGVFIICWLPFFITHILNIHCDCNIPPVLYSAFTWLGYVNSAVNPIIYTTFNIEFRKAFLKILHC
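PathHunter beta-arrestin assay in DiscoveRx D2 cells. Compounds were added with an EC20 of dopamine (50 nM final) for 90 min at 37 deg C. Luminescence was read 1 h after detection reagent, with 57 uM dopamine as the EC100 control.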
TRPML1 agonist: qHTS for Agonists of the Human Mucolipin Transient Receptor Potential 1 (TRPML1); TRPML1-expressing cells, Ca2+ dye fluorescence, FDSS; host cell line not named in the record; reference of the full effect not given here; Mucolipin-1 (Homo sapiens), Q9GZU1; 410,000 compounds, 0.12% hits; activation, % (test concentration not listed); in the data active = activation above about 50%; inconclusive = about 30% to 50%; inactive = below about 30%; note: 0% is about no effect; the text of the record puts the active cut at 80%
Target sequence (Q9GZU1 whole entry, looked up): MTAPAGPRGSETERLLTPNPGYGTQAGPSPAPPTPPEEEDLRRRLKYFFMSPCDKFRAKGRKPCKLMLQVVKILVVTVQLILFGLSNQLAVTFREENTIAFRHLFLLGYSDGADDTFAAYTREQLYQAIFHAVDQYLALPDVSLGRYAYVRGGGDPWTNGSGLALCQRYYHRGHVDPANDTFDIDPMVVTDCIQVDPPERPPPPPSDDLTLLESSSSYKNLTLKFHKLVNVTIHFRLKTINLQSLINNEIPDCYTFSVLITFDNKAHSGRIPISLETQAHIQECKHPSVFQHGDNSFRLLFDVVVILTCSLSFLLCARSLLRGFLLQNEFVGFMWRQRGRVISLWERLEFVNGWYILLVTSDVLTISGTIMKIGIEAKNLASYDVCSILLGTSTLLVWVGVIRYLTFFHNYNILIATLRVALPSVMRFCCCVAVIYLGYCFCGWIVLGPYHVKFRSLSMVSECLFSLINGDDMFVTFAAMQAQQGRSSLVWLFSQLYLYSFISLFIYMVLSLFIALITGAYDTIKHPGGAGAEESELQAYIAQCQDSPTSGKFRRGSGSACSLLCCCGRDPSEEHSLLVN
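Kinetic FDSS Ca2+ read in Tet-induced TRPML1-DL cells (ABD Ca8 dye plus quencher, 45-90 min RT loading): baseline, then compound, then 110 s agonist window; EC80 agonist 54-4 at 4uM final added afterwards for a 110 s antagonist window.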
Six1-Eya2 inh: qHTS Assay for Inhibitors of the Six1/Eya2 Interaction. 360,000 compounds, 0.56% hits. AlphaScreen GST-Six1/His-Eya2 binding, biochemical; stronger effect = lower value; control for the full effect not named in the record. activity change, % (test concentration not listed). Homeobox protein SIX1 (Homo sapiens) + Protein phosphatase EYA2 (Homo sapiens), …; in the data active = activity change below about -65%; inconclusive = about -30% to -65%; inactive = above about -30%; note: % is set by controls: 0 for no effect and ±100 for the full control effect
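AlphaScreen with GST-Six1 and His-Eya2 (5X mix: 250 nM and 500 nM), glutathione donor and nickel acceptor beads; buffer 50 mM Tris pH 8.0, 300 mM NaCl, 1 mM TCEP; 1 h at 37 C in the dark.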
TRPML1 blocker: qHTS for Inhibitors of the Human Mucolipin Transient Receptor Potential 1 (TRPML1). Mucolipin-1 (Homo sapiens), Q9GZU1. TRPML1-inducible cells, Ca2+ dye fluorescence, FDSS; stronger effect = lower value; inhibition of EC80 agonist-evoked calcium signal. activity change, negative = inhibition, % (concentration not given with the values). 390,000 compounds, 0.02% hits. AID 624415, 2012; in the data active means activity change below about -50%; inconclusive means about -30% to -50%; inactive means above about -30%;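 note: stimulus is agonist 54-4 at its EC80 concentration; % is set by controls: 0 for no effect and ±100 for the full control effect; the text of the record puts the active cut at -80%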
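Calcium fluorescence in TRPML1-DL cells induced overnight with Tet: a 110 s read after compound pin addition, then a 110 s antagonist read after challenge with 54-4 at 4 uM final (EC80).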
CtBP-E1A blk: qHTS Assay for Inhibitors of the CtBP/E1A Interaction. CtBP / adenovirus E1A interaction (AlphaScreen). AlphaScreen GST-E1A/His-CtBP binding, 1536-well; stronger effect = lower value; control for the full effect not named in the record. activity change, % (concentration not given with the values). 340,000 compounds, 0.49% hits. AID 651724, 2012; in the data active means activity change below about -65%; inconclusive means about -30% to -65%; inactive means above about -30%; note: % is set by controls: 0 for no effect and ±100 for the full control effect
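Homogeneous bead-based format: GST-tagged E1A captured on glutathione donor beads, His-tagged CtBP on nickel acceptor beads; compounds precede bead addition by 2 h at 37 °C.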
The depositor's hits bear a star; ? = inconclusive; · = no result given.

SMILES	TRPV1 PAM	D2 PAM	TRPML1 agonist	Six1-Eya2 inh	TRPML1 blocker	CtBP-E1A blk
Nc1nc(SCC(=O)Nc2ccc(Cl)c(S(=O)(=O)N3CCOCC3)c2)n[nH]1	6.6	-12.8	-0.4	-6.0	-4.5	·
CCCCCc1cc(=O)oc2c(C(CCN3CCCC(C)C3)c3ccc4c(c3)OCO4)c(OC)cc(OC)c12 (configuration not stated)	-10.6	-100.5	-1.1	-7.7	-7.8	-2.1
Cc1cccc(C)c1NCc1n[nH]c(=S)n1-c1ccccc1	12.1	-2.9	-1.5	-2.8	2.1	9.7
CC(=O)c1cccc(NS(=O)(=O)c2ccc(-c3cc(C)no3)s2)c1	6.5	-0.5	0.7	11.1	-6.0	·
COc1ccc(C(=O)OCCN2C(=O)c3ccccc3C2=O)cc1	4.6	-18.0	0.4	2.9	27.5	12.8
COc1cccc(C(=O)NC2CC3CCCC(C2)N3S(=O)(=O)c2ccccc2)c1 (configuration not stated)	-9.3	2.1	0.0	7.8	-5.3	0.0
COc1ccc(C(C(=O)NCC2CCCO2)N(C(=O)CNC(=O)c2ccco2)c2ccccc2)cc1OC (configuration not stated)	-2.2	-3.6	0.6	-8.9	-8.1	-2.9
Cc1ccc(/C(=N/Nc2ncnc3ccccc23)C(=O)O)cc1	-0.2	-7.9	-0.4	-84.0*	-0.4	-77.3*
COc1ccc(C=C2C=C(C(C)(C)C)C(=O)C(C(C)(C)C)=C2)cc1OC	-5.6	0.3	1.6	-1.4	4.5	3.5
CNC[C@@H](Cc1ccccc1)NC[C@@H](CC1CCCCC1)NCCCc1ccccc1	-8.8	-15.2	0.0	11.7	-8.7	-21.5
Cn1cccc1/C=N/NC(=O)c1ccc[n+]([O-])c1	6.2	-6.6	0.9	2.4	-1.3	0.0
O=C(Oc1ccccc1N1CCOCC1)c1ccccc1	-16.5	-3.0	0.3	5.6	-12.2	3.5
CC(C)OCCCn1c(-c2ccc(Br)cc2)c[nH]c1=S	-15.0	-17.4	1.5	-2.0	5.8	-27.9
CN1CCN(C(=O)CCc2nc3ccccc3c(=O)[nH]2)CC1	-0.5	16.9	-1.1	2.0	18.0	7.8
CCCCCNCC(=O)Nc1cccc(C(=O)Nc2cccc(C(F)(F)F)c2)c1	-1.0	-9.7	4.5	8.1	8.7	2.8
COc1cc(CN2CCC(N3CCC(C(=O)N4CCCC4)CC3)CC2)cc2c1OCO2	1.7	-9.4	0.3	-0.8	24.7	0.0
CCCNC(=O)c1cc(S(=O)(=O)N2CCCCC2)c[nH]1	-6.4	-2.2	-0.5	4.1	38.0	-3.9
O=[N+]([O-])c1ccccc1-c1cc(-c2ccccc2O)n[nH]1	-28.7	0.2	0.3	-5.9	-17.7	-12.3
CSCCC(NC(=O)c1ccccc1Br)C(=O)N1CCN(C/C=C/c2ccccc2)CC1 (configuration not stated)	·	-10.8	-0.7	-9.0	-2.6	·
COC(C[C@@H]1O[C@@H]1C(=O)[C@H](C)OCc1ccccc1)OC	·	-5.7	-0.7	6.3	-13.8	6.2
OC[C@@H]1[C@@H](c2ccc(Cl)cc2)C(c2ccc(F)cc2)=NN1c1ccccc1	·	2.2	-0.3	49.1	1.9	54.3
C[C@H](CO)N1C[C@H](C)[C@@H](CN(C)Cc2ccc(Cl)c(Cl)c2)OCCCC[C@H](C)Oc2ccc(NC(=O)CCC(F)(F)F)cc2C1=O	·	-7.5	0.0	-11.1	-2.5	-5.9
COc1ccc(CCN(C)C(=O)C2CCN(C(=O)Nc3ccccc3)CC2)cc1OC	-5.7	-18.8	1.2	5.8	-7.3	-24.4
O=C(NNc1c(Cl)cccc1Cl)c1ccno1	-14.5	-0.4	0.7	-4.7	-26.8	2.9
O=C(CSc1nc2ccccc2nc1N1CCCCC1)Nc1ccc(F)cc1	8.6	-2.0	0.4	6.5	39.3	20.1
COc1cc(OC)cc(C(=O)N[C@H](C(=O)OCC(=O)NC(=O)NC(C)(C)C)C(C)C)c1	3.0	-18.3	-0.8	-4.3	6.0	1.6
O=C(CN1CCNCC1)NCCSc1ccc(Cl)cc1	4.7	-3.5	0.2	-1.6	0.9	0.0
C/C=C/C1=CC(=O)C[C@H](c2ccc3c(c2)OCO3)C1	-18.5	-7.6	0.1	0.3	21.3	-0.3
Cc1cc(C)c2sc(N(CCN(C)C)C(=O)c3cc(Cl)sc3Cl)nc2c1	-6.3	-22.7	-0.8	?	7.9	-9.1
Cc1cccc(C(=O)NC(=S)Nc2c(C)n(C)n(-c3ccccc3)c2=O)c1	·	-4.7	-0.4	5.3	4.1	-1.0
COC(=O)N1CCCCC1c1cc(C(=O)Nc2ccccc2Cl)no1 (configuration not stated)	·	-1.3	-0.7	1.6	·	8.1
c1ccc(Nc2nc(N3CCOCC3)nc(N3CCOCC3)n2)cc1	4.0	-3.8	1.2	4.9	-6.1	8.5
O=C(Nc1nc2ccccc2[nH]1)c1ccc(S(=O)(=O)N2CCOCC2)cc1	-5.3	-10.1	0.3	-1.5	-4.8	·
COc1ccc(COC(=O)CCS(=O)(=O)c2ccc(C)cc2)cc1	12.4	-4.0	3.2	2.7	9.2	8.1
COc1ccc(CNC(=O)CCCn2ncn3c(cc4occc43)c2=O)cc1	-6.9	-2.5	0.3	-0.2	-7.5	·
COc1ccc(NC(=S)N(Cc2ccc(N(C)C)cc2)Cc2ccco2)cc1	20.9	-3.1	2.1	?	12.5	-20.8
COc1cc(C)nc(Oc2ccc(=O)n(C)n2)n1	3.9	7.4	-0.9	-4.0	21.3	-18.7
O=C(Nc1ccc(N2CCN(C(=O)c3ccccc3)CC2)cc1)c1ccc2c(c1)OCO2	-23.6	-10.4	-0.5	-12.9	-2.0	-2.3
COc1ccc(CN2C(=O)CCC2(C)c2nnnn2-c2ccc3c(c2)OCCO3)cc1 (configuration not stated)	·	·	-0.9	7.7	·	4.3
COc1ccc(NC(=O)CN2CCc3ccccc3C2)cc1OC	-27.9	-11.2	0.9	-6.3	-8.9	11.4
O=C(COc1cccc(Cl)c1)Nc1ccc2c(c1)CCC2	6.0	-14.8	0.4	15.1	-3.3	-6.4
O=C(Cc1ccccc1F)Nc1ccc2c(c1)CCC2	-16.7	-4.6	0.7	8.5	33.0	1.5
CC(=O)NS(=O)(=O)c1ccc(NC(=O)/C=C/c2ccc(C)o2)cc1	7.9	4.0	0.0	-10.9	12.9	1.1
CCOC(=O)C1=C(C)N(C)C(=S)NC1c1ccc(Cl)cc1 (configuration not stated)	-3.5	3.8	0.0	-14.9	-3.5	-4.0
Cc1nc(NC(=O)C(C)Oc2cccc(Cl)c2)sc1C(=O)N(C)C (configuration not stated)	1.9	-8.2	-0.3	0.6	-10.0	-1.4

An excerpt from above in order of length of the SMILES, highest first:
SMILES	TRPV1 PAM	D2 PAM	TRPML1 agonist	Six1-Eya2 inh	TRPML1 blocker	CtBP-E1A blk
O=C(Nc1ccc(N2CCN(C(=O)c3ccccc3)CC2)cc1)c1ccc2c(c1)OCO2	-23.6	-10.4	-0.5	-12.9	-2.0	-2.3
COc1ccc(CN2C(=O)CCC2(C)c2nnnn2-c2ccc3c(c2)OCCO3)cc1 (configuration not stated)	·	·	-0.9	7.7	·	4.3
O=C(Nc1nc2ccccc2[nH]1)c1ccc(S(=O)(=O)N2CCOCC2)cc1	-5.3	-10.1	0.3	-1.5	-4.8	·
CC(=O)NS(=O)(=O)c1ccc(NC(=O)/C=C/c2ccc(C)o2)cc1	7.9	4.0	0.0	-10.9	12.9	1.1
COc1ccc(CNC(=O)CCCn2ncn3c(cc4occc43)c2=O)cc1	-6.9	-2.5	0.3	-0.2	-7.5	·
COc1ccc(COC(=O)CCS(=O)(=O)c2ccc(C)cc2)cc1	12.4	-4.0	3.2	2.7	9.2	8.1
COC(=O)N1CCCCC1c1cc(C(=O)Nc2ccccc2Cl)no1 (configuration not stated)	·	-1.3	-0.7	1.6	·	8.1
c1ccc(Nc2nc(N3CCOCC3)nc(N3CCOCC3)n2)cc1	4.0	-3.8	1.2	4.9	-6.1	8.5
COc1ccc(NC(=O)CN2CCc3ccccc3C2)cc1OC	-27.9	-11.2	0.9	-6.3	-8.9	11.4
O=C(Cc1ccccc1F)Nc1ccc2c(c1)CCC2	-16.7	-4.6	0.7	8.5	33.0	1.5

More structures
SMILES	TRPV1 PAM	D2 PAM	TRPML1 agonist	Six1-Eya2 inh	TRPML1 blocker	CtBP-E1A blk
Cc1cc(C)c(C)c(OCCCOc2cccc3cccnc23)c1	-10.8	-4.1	2.3	-0.7	23.8	3.5
CCOC(=O)C1=C(C)Nc2ccccc2N=C1N	-3.9	2.5	0.3	-0.2	-15.6	-0.9
O=c1[nH]nc(Cc2ccc3ccccc3n2)c2ccccc12	8.4	-9.0	-0.8	1.2	-15.9	0.7
Cc1cc(Cl)ccc1NC(=S)NCc1ccco1	7.1	-15.2	-1.0	-9.8	14.7	-6.2
Cc1ccc(C2C3=C(CC(C)(C)CC3=O)NC3=C2C(=O)c2ccccc23)cc1 (configuration not stated)	-3.4	-41.7	1.0	?	2.9	?
CCN(CC(=O)Nc1c(F)cccc1F)C(=O)CCc1nc2ccccc2c(=O)[nH]1	12.3	-3.6	0.6	-5.1	3.2	3.5
CN(C)/C=C/c1onc(-c2c(F)cccc2Cl)c1C#N	-10.0	-1.5	0.6	-6.4	19.3	-2.7
O=C1CC(SC(=NCc2ccc3c(c2)OCO3)Nc2ccccc2)C(=O)N1 (configuration not stated)	6.1	-13.4	-1.3	-3.9	-5.6	3.9
CCN(CC)c1cc2nc(C)n(Cc3ccccc3)c(=O)c2cc1NC(=O)C1CC1	10.5	24.6	0.2	-6.8	6.7	-6.9
CC1(C(=O)NCCc2ccccc2)Cc2c(-c3ccccc3)ccnc2O1 (configuration not stated)	·	-18.1	-0.2	-21.0	-2.6	-16.6
C[C@H](CO)N1C[C@H](C)[C@H](CN(C)Cc2ccccc2)Oc2c(NC(=O)Nc3ccc(F)cc3)cccc2C1=O	·	-19.8	0.5	-5.1	60.2	-0.5
O=C(CCC(=O)NNC(=O)COc1ccc(Br)cc1)NCc1ccccc1	7.9	-0.7	-0.6	8.2	-0.9	·

Source: PubChem BioAssay
